Screening data from PubChem.
KCNQ2 inh = KCNQ2 potassium channel inhibitors, primary screen, cell-based, CHO-K1, FluxOR thallium flux, B-score (AID 2156); O88943; 20 min; active compounds read low; only compounds with negative scores are shown here; some inactives read as strong as hits; B-score at 10 µM; actives 1.1% (n = 310,000);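 active = fluorescence ratio B-score at most minus 3 library SDs, with starting brightness B-score within 2 library SDs, cut at about -5.5 in these data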
Target sequence (O88943 whole entry, looked up): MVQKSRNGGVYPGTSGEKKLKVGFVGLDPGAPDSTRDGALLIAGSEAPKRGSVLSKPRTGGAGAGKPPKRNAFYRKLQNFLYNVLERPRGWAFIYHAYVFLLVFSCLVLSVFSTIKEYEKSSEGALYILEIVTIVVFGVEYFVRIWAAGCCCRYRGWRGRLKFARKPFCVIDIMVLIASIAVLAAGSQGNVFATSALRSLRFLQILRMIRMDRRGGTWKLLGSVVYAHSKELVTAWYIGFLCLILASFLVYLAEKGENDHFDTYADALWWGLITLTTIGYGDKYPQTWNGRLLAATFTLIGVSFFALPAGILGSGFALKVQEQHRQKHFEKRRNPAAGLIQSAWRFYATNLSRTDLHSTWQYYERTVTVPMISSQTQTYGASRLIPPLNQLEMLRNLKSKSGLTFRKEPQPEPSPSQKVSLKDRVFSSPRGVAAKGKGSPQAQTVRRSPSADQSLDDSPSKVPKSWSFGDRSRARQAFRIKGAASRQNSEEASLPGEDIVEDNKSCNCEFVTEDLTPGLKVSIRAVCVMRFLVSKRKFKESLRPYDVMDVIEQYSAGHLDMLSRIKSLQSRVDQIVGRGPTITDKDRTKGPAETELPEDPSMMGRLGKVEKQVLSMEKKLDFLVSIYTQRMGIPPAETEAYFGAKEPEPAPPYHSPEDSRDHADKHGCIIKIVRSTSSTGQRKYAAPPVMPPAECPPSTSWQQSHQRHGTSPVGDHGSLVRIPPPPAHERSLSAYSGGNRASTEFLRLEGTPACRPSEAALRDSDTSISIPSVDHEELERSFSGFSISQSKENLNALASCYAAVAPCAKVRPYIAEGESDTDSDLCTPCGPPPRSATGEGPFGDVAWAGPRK
KCNQ2 inh baseline = second read-out of KCNQ2 inh, no call of its own (marks repeat the call); B-score; measured here: initial fluorescence intensity artifact check;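 brightness before thallium and not channel activity; 0 = typical well and far values either way flag optical interference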
Active calls of the source: *. Only part of the results is shown (hit frequency here may not be typical).

For COc1ccccc1N1N=C(C(=O)c2ccccc2)C2C(=O)N(c3ccc(Br)cc3)C(=O)C21 (stereo not given) the results were KCNQ2 inh inactive and KCNQ2 inh baseline 0.48.
Screening C#CCOc1ccc(/C=C2/C(=O)ON=C2C)cc1OCC returned KCNQ2 inh inactive and KCNQ2 inh baseline 3.3.
Cn1c(NCCCO)nc2c1c(=O)n(Cc1ccccc1F)c(=O)n2C was read as KCNQ2 inh inactive and KCNQ2 inh baseline 0.34.
For COc1ccc(CSc2nc3ccccc3[nH]2)cc1 the results were KCNQ2 inh inactive and KCNQ2 inh baseline 1.8.
For Cc1cccc(N(Cc2ccc(Cl)cc2)S(C)(=O)=O)c1 the results were KCNQ2 inh inactive and KCNQ2 inh baseline -0.17.
For CC(C)(C)c1cc(C(=O)N/N=C/c2ccncc2)n[nH]1 the results were KCNQ2 inh inactive and KCNQ2 inh baseline -1.1.
Screening O=C(CN1CCN(S(=O)(=O)c2ccccc2)CC1)Nc1ccc([N+](=O)[O-])cc1 returned KCNQ2 inh inactive and KCNQ2 inh baseline 0.29.
O=C1Nc2ccc(Cl)cc2C(C#CC2CC2)(C(F)(F)F)O1 (stereo not given) was read as KCNQ2 inh inactive and KCNQ2 inh baseline -2.1.
N#Cc1c(N)nc2c(c1N)CC(=O)N2c1ccccc1-c1ccccc1 was read as KCNQ2 inh inactive and KCNQ2 inh baseline 2.4.
`Cc1nnc(-c2cccc(Br)c2)c2cn(-c3ccc(Br)cc3)nc12` gave KCNQ2 inh inactive and KCNQ2 inh baseline -1.1.
Screening COc1ccc(NC(=O)c2cc(-c3ccc(OC)c(OC)c3)nc3ccccc23)c(OC)c1 returned KCNQ2 inh -5.9* and KCNQ2 inh baseline 0.02*.
For CCOC(=O)c1c(C)[nH]c(C2=NNC(=Nc3cccc(Cl)c3)SC2)c1C the results were KCNQ2 inh inactive and KCNQ2 inh baseline 2.
COc1ccc(CCNC(=O)c2cc3cc(F)ccc3nc2C)cc1OC was read as KCNQ2 inh inactive and KCNQ2 inh baseline 0.13.
COc1ccc(/C=C/C(=O)Nc2nc(C)c(C(=O)N(C)C)s2)cc1OC was read as KCNQ2 inh inactive and KCNQ2 inh baseline 0.54.
For Cc1nc2c(-c3ccc(F)cc3)c(C)[nH]n2c(=O)c1Cl the results were KCNQ2 inh inactive and KCNQ2 inh baseline 0.39.
`FC(F)(F)c1ccc(-n2ccnc2)nc1` gave KCNQ2 inh inactive and KCNQ2 inh baseline 2.8.
Screening COc1ccccc1N(C)C(=O)c1cc(S(=O)(=O)N2CCc3ccccc32)cn1C returned KCNQ2 inh inactive and KCNQ2 inh baseline 2.2.
For Cc1cc(C)cc(NC(=O)CSc2nc(=O)n(CCN3CCOCC3)c3c2CCCC3)c1 the results were KCNQ2 inh inactive and KCNQ2 inh baseline -2.1.
`CC1Cc2nc(SCC(=O)N3CCc4ccccc43)n(C)c(=O)c2S1` (stereo not given) gave KCNQ2 inh inactive and KCNQ2 inh baseline 0.23.
For CC1=C(C#N)C(=O)N(C2CCS(=O)(=O)C2)C(=O)/C1=C\c1ccco1 (stereo not given) the results were KCNQ2 inh inactive and KCNQ2 inh baseline 1.5.
N=c1c(S(=O)(=O)c2ccc(Cl)cc2)cc2c(=O)n3ccccc3nc2n1C1CCCCC1 was read as KCNQ2 inh inactive and KCNQ2 inh baseline 0.81.
Screening CCc1c(C)c2c(C)nn(-c3ccccc3)c2oc1=O returned KCNQ2 inh inactive and KCNQ2 inh baseline -2.
Screening Cn1c(=O)c2c(nc(NCCCN3CCOCC3)n2Cc2cccc(Cl)c2)n(C)c1=O returned KCNQ2 inh inactive and KCNQ2 inh baseline 0.98.
`O=C(c1cc(-c2ccco2)nc2ccccc12)N1CCN(c2ccc(F)cc2)CC1` gave KCNQ2 inh inactive and KCNQ2 inh baseline -1.
Screening Cc1cc(=O)c2cc(Br)ccc2[nH]1 returned KCNQ2 inh inactive and KCNQ2 inh baseline -0.02.
`CCOC(=O)Cc1csc(NC(=O)CSc2nnc(-c3cccnc3)n2Cc2ccco2)n1` gave KCNQ2 inh inactive and KCNQ2 inh baseline -1.8.
Screening CC1CCN(S(=O)(=O)c2ccc(C(=O)Nc3nnc(-c4ccco4)o3)cc2)CC1 returned KCNQ2 inh inactive and KCNQ2 inh baseline -1.6.
`Cc1[nH]n(-c2c(Cl)cc(Cl)cc2Cl)c(=O)c1C=Nc1ccc(S(=O)(=O)N2CCOCC2)cc1` gave KCNQ2 inh inactive and KCNQ2 inh baseline -1.5.
`C=CCn1c(CCc2cc(C(C)(C)C)c(O)c(C(C)(C)C)c2)n[nH]c1=S` gave KCNQ2 inh inactive and KCNQ2 inh baseline 0.55.
Screening CC12COC3(C(N)=O)CC1CCC32C (stereo not given) returned KCNQ2 inh inactive and KCNQ2 inh baseline -0.05.
Nc1nnc(N2CCc3ccccc32)s1 was read as KCNQ2 inh inactive and KCNQ2 inh baseline -1.5.
For Cc1cc(NC(=O)c2cncc(Br)c2)n(-c2ccccn2)n1 the results were KCNQ2 inh inactive and KCNQ2 inh baseline -1.2.
Cc1cc(NC(=O)COc2c(C)cccc2C)no1 was read as KCNQ2 inh inactive and KCNQ2 inh baseline 0.51.
O=c1c2ccccc2ncn1-c1ccc([N+](=O)[O-])cc1[N+](=O)[O-] was read as KCNQ2 inh inactive and KCNQ2 inh baseline -1.1.
COc1cc(/C=C2/SC(N)=NC2=O)ccc1Oc1ccc([N+](=O)[O-])cc1[N+](=O)[O-] was read as KCNQ2 inh inactive and KCNQ2 inh baseline -0.05.
For COC(=O)c1ccc(N=NNc2ccc(C(=O)OC)cc2)cc1 the results were KCNQ2 inh inactive and KCNQ2 inh baseline -0.85.
Screening CN(C)S(=O)(=O)c1ccc(Cl)c(NC(=O)CN2CCc3ccccc3C2)c1 returned KCNQ2 inh inactive and KCNQ2 inh baseline 2.4.
Screening Cc1cc(C(=O)OCC(=O)Nc2cc(C(F)(F)F)ccc2N2CCOCC2)c(C)o1 returned KCNQ2 inh inactive and KCNQ2 inh baseline 0.91.
Cc1cc(C)c(S(=O)(=O)N(C)CC(=O)N2CCCCC2)c(C)c1 was read as KCNQ2 inh inactive and KCNQ2 inh baseline -0.27.
For CCOc1ccc(-c2noc(CCCC(=O)NCC3CCCO3)n2)cc1OC (stereo not given) the results were KCNQ2 inh inactive and KCNQ2 inh baseline -0.19.
`Cn1c(=O)[nH]c2cc(Cl)cnc21` gave KCNQ2 inh inactive and KCNQ2 inh baseline 2.7.
`CC1C(=O)N2CCCc3cc(S(=O)(=O)N4CCN(c5ccccc5F)CC4)cc1c32` (stereo not given) gave KCNQ2 inh inactive and KCNQ2 inh baseline -0.01.
Screening Cc1ccc(Nc2c([N+](=O)[O-])ccc3c2=NC2(CCCCC2)N=3)cc1 returned KCNQ2 inh inactive and KCNQ2 inh baseline -0.56.
CC1CCN(C(=O)C(=O)Nc2sc3c(c2C(=O)O)CC(C)(C)OC3)CC1 was read as KCNQ2 inh inactive and KCNQ2 inh baseline 2.2.
`COc1ccc(-c2c(=O)n(OCc3ccccc3[N+](=O)[O-])c3ccccc3[n+]2[O-])c(OC)c1` gave KCNQ2 inh inactive and KCNQ2 inh baseline 1.5.
For O=C(NNC(=S)NC(=O)c1cccc([N+](=O)[O-])c1)c1ccc(O)cc1 the results were KCNQ2 inh inactive and KCNQ2 inh baseline -1.3.
COCCn1c(SCC(=O)N2CCc3ccccc3C2)nc2cc(Cl)ccc2c1=O was read as KCNQ2 inh inactive and KCNQ2 inh baseline -0.85.
Screening CC(C)(C)OC(=O)N1CCC(c2cc(=O)n3[nH]c(-c4ccc(Cl)cc4)cc3n2)CC1 returned KCNQ2 inh inactive and KCNQ2 inh baseline 1.9.
Screening Cc1cc(C)cc(-n2c(C)cc(C(=O)CSc3nnnn3C)c2C)c1 returned KCNQ2 inh inactive and KCNQ2 inh baseline 0.87.
Cc1ccc2nc(/C(C#N)=N/O)[nH]c2c1 was read as KCNQ2 inh inactive and KCNQ2 inh baseline 4.6.
`Oc1c(C(c2ccccc2)N2CCN(Cc3ccccc3)CC2)sc2ncnn12` (stereo not given) gave KCNQ2 inh inactive and KCNQ2 inh baseline -0.43.
For C#CCNC(=O)C1=C[C@@H](c2ccc(Br)cc2)C[C@@H](OCc2ccc(CO)cc2)O1 the results were KCNQ2 inh inactive and KCNQ2 inh baseline 0.48.
O=C(Cn1c2ccccc2c(=O)c2ccccc21)N/N=C/c1ccc(N2CCCC2)c([N+](=O)[O-])c1 was read as KCNQ2 inh inactive and KCNQ2 inh baseline -0.28.
Screening Cc1ccc(C)c(NC(=O)CN(C)C(=O)c2sccc2C)c1 returned KCNQ2 inh inactive and KCNQ2 inh baseline 0.09.
`CC1(C)CC2(CC(c3ccccc3)c3ccc(O)cc3O2)NC(=S)N1` (stereo not given) gave KCNQ2 inh inactive and KCNQ2 inh baseline -0.8.
Screening CC1(CCc2ccccc2)NC(=O)N(CC(=O)O)C1=O (stereo not given) returned KCNQ2 inh inactive and KCNQ2 inh baseline -2.6.
`CCN(CC)C(=O)Oc1ccc(NC(C)=O)cc1` gave KCNQ2 inh inactive and KCNQ2 inh baseline 2.8.
COC1c2ccccc2C(=O)N1CCc1ccc(Cl)cc1 (stereo not given) was read as KCNQ2 inh inactive and KCNQ2 inh baseline 0.87.
For COCc1c(C(=O)N/N=C(\C)c2ccncc2)nnn1-c1nonc1N the results were KCNQ2 inh inactive and KCNQ2 inh baseline -0.01.
For CC(=O)c1ccc(N2CCN(C(=O)C3CCN(S(=O)(=O)Cc4ccccc4)CC3)CC2)cc1 the results were KCNQ2 inh inactive and KCNQ2 inh baseline 1.8.

For convenience, some entries already given.
For COCc1c(C(=O)N/N=C(\C)c2ccncc2)nnn1-c1nonc1N the results were KCNQ2 inh inactive and KCNQ2 inh baseline -0.01.
For CC(=O)c1ccc(N2CCN(C(=O)C3CCN(S(=O)(=O)Cc4ccccc4)CC3)CC2)cc1 the results were KCNQ2 inh inactive and KCNQ2 inh baseline 1.8.

Further results
CCCN(Cc1ccco1)S(=O)(=O)c1ccc(OC)c(OC)c1 was read as KCNQ2 inh inactive and KCNQ2 inh baseline -0.28.
For S=c1[nH]nc(-c2ccc(Cl)cc2)n1CCCN1CCOCC1 the results were KCNQ2 inh inactive and KCNQ2 inh baseline 0.6.
`O=C(Nc1ccc(N2CCCC2)cc1)c1ccc([N+](=O)[O-])cc1Cl` gave KCNQ2 inh inactive and KCNQ2 inh baseline -0.28.
Screening COc1ccc(N2CCN(CCNC(=O)Nc3ccc(C)c(Cl)c3)CC2)cc1 returned KCNQ2 inh inactive and KCNQ2 inh baseline 2.6.
For Cc1cccc(CC(=O)N2CCOCC2)c1 the results were KCNQ2 inh inactive and KCNQ2 inh baseline 0.32.
CCN(CC)CCn1c2c(c(SCC(=O)Nc3ccc(C(C)C)cc3)nc1=O)CCCC2 was read as KCNQ2 inh inactive and KCNQ2 inh baseline -1.9.
O=C(/C=C/c1ccccc1[N+](=O)[O-])NCCN1C(=O)S/C(=C\c2ccc(F)cc2)C1=O was read as KCNQ2 inh inactive and KCNQ2 inh baseline -0.02.
`COc1ccc(NC(=O)c2ccccc2OCc2ccc(F)cc2)c(OC)c1` gave KCNQ2 inh inactive and KCNQ2 inh baseline 2.3.
For C/C(=C\[C@@H](NP(=O)(c1ccccc1)c1ccccc1)c1ccccc1)CO[Si](c1ccccc1)(c1ccccc1)C(C)(C)C the results were KCNQ2 inh inactive and KCNQ2 inh baseline 1.1.
For Cc1ccc(C(=O)NCCCNC(=O)COc2ccc(C)c(C)c2)cn1 the results were KCNQ2 inh inactive and KCNQ2 inh baseline -1.2.
`O=C1CC(c2ccco2)CC(O)=C1C=Nc1ccccc1-c1ccccc1` (stereo not given) gave KCNQ2 inh inactive and KCNQ2 inh baseline 1.4.
For COCCn1c(SCc2nnc(-c3ccccc3)o2)nc2sc3c(c2c1=O)CCC3 the results were KCNQ2 inh -6.6* and KCNQ2 inh baseline 0.38*.
`CCC(=O)c1ccc(N2CCN(C(=O)c3cc([N+](=O)[O-])ccc3F)CC2)c(F)c1` gave KCNQ2 inh inactive and KCNQ2 inh baseline -0.82.
`S=c1[nH]nc(C(c2ccccc2)C2CCCCC2)o1` (stereo not given) gave KCNQ2 inh inactive and KCNQ2 inh baseline -0.13.
`CS(=O)(=O)c1ccc(C(=O)OCC(=O)NC2CCS(=O)(=O)C2)cc1[N+](=O)[O-]` (stereo not given) gave KCNQ2 inh inactive and KCNQ2 inh baseline 0.47.
`CC(=O)Nc1ccc(N(C(=O)CNC(=O)c2ccco2)C(C(=O)NCC2CCCO2)c2ccccc2)cc1` (stereo not given) gave KCNQ2 inh inactive and KCNQ2 inh baseline 0.07.
O=C(NCc1ccc(C(F)(F)F)cc1)C1CC(c2ccccc2C(F)(F)F)=NO1 (stereo not given) was read as KCNQ2 inh inactive and KCNQ2 inh baseline 0.05.

Compounds listed so far that contain a furan ring, fused or not:
For CC1=C(C#N)C(=O)N(C2CCS(=O)(=O)C2)C(=O)/C1=C\c1ccco1 (stereo not given) the results were KCNQ2 inh inactive and KCNQ2 inh baseline 1.5.
`O=C(c1cc(-c2ccco2)nc2ccccc12)N1CCN(c2ccc(F)cc2)CC1` gave KCNQ2 inh inactive and KCNQ2 inh baseline -1.
`CCOC(=O)Cc1csc(NC(=O)CSc2nnc(-c3cccnc3)n2Cc2ccco2)n1` gave KCNQ2 inh inactive and KCNQ2 inh baseline -1.8.
Screening CC1CCN(S(=O)(=O)c2ccc(C(=O)Nc3nnc(-c4ccco4)o3)cc2)CC1 returned KCNQ2 inh inactive and KCNQ2 inh baseline -1.6.
Screening Cc1cc(C(=O)OCC(=O)Nc2cc(C(F)(F)F)ccc2N2CCOCC2)c(C)o1 returned KCNQ2 inh inactive and KCNQ2 inh baseline 0.91.
CCCN(Cc1ccco1)S(=O)(=O)c1ccc(OC)c(OC)c1 was read as KCNQ2 inh inactive and KCNQ2 inh baseline -0.28.
`O=C1CC(c2ccco2)CC(O)=C1C=Nc1ccccc1-c1ccccc1` (stereo not given) gave KCNQ2 inh inactive and KCNQ2 inh baseline 1.4.
`CC(=O)Nc1ccc(N(C(=O)CNC(=O)c2ccco2)C(C(=O)NCC2CCCO2)c2ccccc2)cc1` (stereo not given) gave KCNQ2 inh inactive and KCNQ2 inh baseline 0.07.
